LANA-H2B inh: blockers of LANA interaction with H2A/H2B – biochemical, FP readout, HTS, primary screen; Protein LANA1 (Human herpesvirus 8 type P (isolate GK18)), Q9QR71; cell-free LANA-H2A/H2B peptide, fluorescence polarization; inhibition, % (no concentration beside the values); 320,000 compounds, 0.6% hits; AID 2629, 2010; in the data active means inhibition mostly above about 10%, no sharp cut-off; inactive means mostly below about 6.7%;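 further: stock transfer was 7.5 nL into about 10 µL; 0% = median of vehicle wells and 100% = median of positive control wells; one replicate is shown; the record names a cut of 25% in any replicate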
T cruzi inh: inhibitors of intracellular T. cruzi growth, primary screen, luminescence, NIH3T3 host cells; T. cruzi beta-gal in NIH3T3, 90 h; inhibition, % (test concentration not listed); 300,000 compounds, 1.4% hits; AID 1885, 2009;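 active means mean inhibition across valid replicates above about 55%, limit read from the data; inconclusive means mean below that limit but half or more replicates reach it; inactive means mean below it, under half of replicates reach it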;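 further: signal also drops with host cell toxicity which is not excluded here; 0% = plate median of DMSO wells and 100% = zero luminescence signal; higher percent means less beta-gal luminescence so fewer parasites; stock transfer was 50 nL into about 50 µL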
A1 inh: caspase 3/7 activation in MEF A1-2A-BIM cells, primary screen, A1 inhibitor project, cell-based, luminescence, HTS; caspase activation, % (concentration not given with the values); 330,000 compounds, 0.066% hits; AID 2462, 2010; Caspase-Glo 3/7 luminescence, 3 h; percent of clofoctol response, vehicle zero;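 active means over half of replicate activation scores above 10%, or exactly half above 10 with the replicate mean above 10; inconclusive means replicate mean below 10 yet half the replicates above 10; inactive means over half of replicates below 10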;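 further: wells of about 30 µL received 50 nL stock; many hits fall short of the cut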
Beta apoptosis: inhibitors of cytokine-induced beta cell apoptosis, primary screen, luminescence; protection from apoptosis, % (concentration not given with the values); 300,000 compounds, 0.8% hits; INS-1E cytokine-induced death, ATP luminescence, 48 h; percent of positive-control rescue, neutral wells zero;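 active means all replicates at 75% or more, or half of them and the mean; inconclusive means half reach 75% but not the mean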;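 further: 0% = cytokine-treated negative control wells and 100% = positive control rescue; higher means more ATP so stronger rescue from cytokine killing; wells of about 40 µL received 100 nL stock; the first replicate is given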
RanGTP-Imp inh: inhibitors of RanGTP-importin-beta interaction, primary screen, biochemical, FRET, CFP-Ran, YFP-importin-beta, homogeneous; cell-free CFP-Ran/YFP-importin-beta FRET ratio; AID 2216, 2009; 300,000 compounds, 1.1% hits; inhibition, % (concentration not given with the values); Ran GTPase (GTP-bound) - importin-beta complex;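 active means most replicates above 15%; inconclusive means exactly half above 15%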;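 further: 0% = DMSO wells and 100% = Ran loaded with GDP instead of GTP; wells of about 40 µL received 100 nL stock; the first replicate is given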
Calb FLC: C. albicans growth inhibition with fluconazole, primary screen, CaCi-2 strain, Alamar Blue fluorescence; C. albicans CaCi-2 (fluconazole-resistant clinical isolate) + fluconazole, 48 h; growth inhibition, % (no concentration beside the values); 300,000 compounds, 0.57% hits;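 active means most replicates above 75%; inconclusive means exactly half above 75%; inactive means most below 75%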;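 further: all wells also contain fluconazole at 8 µg/ml as a sub-toxic cotreatment; 0% = median of DMSO wells and 100% = median of geldanamycin control wells; wells of about 8 µL received 7.5 nL stock; the first replicate is given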
B2AR ag: beta2AR agonists driving receptor internalization, primary screen, cell-based, FAP fluorogen, flow cytometry | response, % (concentration not given with the values) | Am2.2-beta2AR cells; reference of the scale not given here | Beta-2 adrenergic receptor (Homo sapiens), P07550 | 340,000 compounds, 0.43% hits;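 active means response above a set limit, near 3 SD of response in nonfluorescent compounds, cut at about 42% in these data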;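 further: stock transfer was 100 nL into about 11 µL; a reference agonist was the positive control; negative values mostly stem from fluorescent compounds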
Target sequence (P07550 whole entry, looked up): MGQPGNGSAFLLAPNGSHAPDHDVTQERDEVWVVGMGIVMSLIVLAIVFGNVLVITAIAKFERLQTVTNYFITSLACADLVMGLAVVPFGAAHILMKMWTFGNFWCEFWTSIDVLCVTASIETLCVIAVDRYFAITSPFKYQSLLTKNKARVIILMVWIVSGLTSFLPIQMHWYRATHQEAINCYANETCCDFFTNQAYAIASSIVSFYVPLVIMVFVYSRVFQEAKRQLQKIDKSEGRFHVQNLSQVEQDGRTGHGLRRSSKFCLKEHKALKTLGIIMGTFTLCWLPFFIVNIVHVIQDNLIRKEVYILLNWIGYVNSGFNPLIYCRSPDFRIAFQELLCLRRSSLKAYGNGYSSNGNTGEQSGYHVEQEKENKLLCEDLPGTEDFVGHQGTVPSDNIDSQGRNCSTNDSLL
UCH37 inh: inhibitors of human UCH37 deubiquitinase, primary screen, biochemical, Ub-AMC cleavage, fluorescence; purified proteasome/UCH37; inhibition, % (no concentration beside the values); 330,000 compounds, 0.33% hits; AID 588478, 2011;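 active means mean of two replicates above 20%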;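 further: 0% = compound-free wells with enzyme and 100% = wells lacking proteasome; stock transfer was 100 nL into about 20 µL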
Target sequence (Q9Y5K5 whole entry, looked up): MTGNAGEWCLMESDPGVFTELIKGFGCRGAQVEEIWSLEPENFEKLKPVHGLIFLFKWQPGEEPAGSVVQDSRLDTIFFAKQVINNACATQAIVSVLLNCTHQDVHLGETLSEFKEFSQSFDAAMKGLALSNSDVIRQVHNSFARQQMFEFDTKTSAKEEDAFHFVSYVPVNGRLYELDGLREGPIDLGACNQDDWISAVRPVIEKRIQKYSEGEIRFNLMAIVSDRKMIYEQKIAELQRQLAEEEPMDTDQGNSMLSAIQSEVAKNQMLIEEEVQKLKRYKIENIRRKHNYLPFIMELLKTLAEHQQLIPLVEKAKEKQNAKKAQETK
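Signal – fluorescence, ex 355 nm, em 460 nm · System – Proteasome-bound UCH37 · Input – 0.15 nM proteasome as dispensed · Timing – 30 min preincubation with enzyme, 25 min cleavage at room temperature · Read-out basis – percent inhibition of cleavage signal versus uninhibited and no-proteasome wells · Medium – Tris-HCl pH 7.4 with ATP-MgCl2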
An asterisk follows results filed as active; u = inconclusive; x = no result given. No enrichment for hits. Share with any hit: about 4.3%.

Compound,Calb FLC,A1 inh,RanGTP-Imp inh,LANA-H2B inh,B2AR ag,UCH37 inh,Beta apoptosis,T cruzi inh
CCCc1c(C)nc(N2CCN(c3cccc(OC)c3)CC2)[nH]c1=O,0,0.1,2.2,-2.3,-8,1.7,-1,-17
COc1ccc(CN(C)C(=O)Cc2ccsc2)c(OC)c1OC,-17,-0.4,0.6,0.6,-2,1.4,-11,-2
Nc1ncn(CC(=O)c2ccccc2)n1,13,0.8,u,1.2,-2,5.1,-7,-27
COc1ccc(CCN(C)C2CCCN(S(=O)(=O)C(C)C)C2)cc1OC (stereo unspecified),-9,-0.2,4.1,-6.7,-2,3.6,x,20
C=CCS(=O)(=O)c1nc2ccccc2s1,1,0.8,u,4.3,28,2.4,-45,-36
Cc1cc(=O)[nH]c(/N=C(\N)Nc2ccc(Oc3ccccc3)cc2)n1,35,0.1,0.8,2.4,-10,x,-4,0
O=C(COC(=O)Cn1cnc2ccccc2c1=O)NNC(=O)c1ccc(Br)cc1,x,-0.3,x,-4.5,-4,4.7,-5,x
NC(=O)C1CC(=O)N(c2ccc(OCc3ccc(F)cc3)cc2)C1 (stereo unspecified),-2,-2.0,-6.3,2.6,-3,4.6,4,-12
CCOc1cc(C2NC(=O)NC(C)=C2C(=O)OCc2ccccc2)ccc1O (stereo unspecified),7,0.9,10.0,-0.9,-11,2.0,7,-10
CCCN(CC(=O)Nc1ccccc1OC)C(C)C(=O)NC(C)CCc1ccccc1 (stereo unspecified),6,-0.2,3.0,-7.0,-1,0.5,4,18
CCCC(=O)NCCCc1nc2ccccc2[nH]1,-2,0.0,-1.4,-3.7,-1,0.9,-1,-14
CCn1c2ccccc2c2cc(/C=N/n3cnnc3)ccc21,11,0.7,-1.9,-1.2,-12,x,6,44
Cc1ccc2nc(C)cc(SCC(=O)N/N=C/c3ccco3)c2c1,-7,0.1,0.5,-2.9,-2,x,-15,-6
CCOC(=O)CSc1nnc(CNC(=O)c2ccc(OC)cc2)n1Cc1ccccc1,x,1.0,x,0.8,5,1.5,0,x
CC1(C)Cc2c(sc3nc[nH]c(=O)c23)CO1,-10,0.3,8.5,4.0,1,1.5,-6,-13
Cc1onc(-c2ccccc2Cl)c1C(=O)N1CCN(C=O)CC1,2,0.6,2.1,-2.4,7,5.0,0,-10
C/C(=N/NC(=O)Cc1cc(=O)[nH][nH]1)c1ccc([N+](=O)[O-])cc1,-8,1.0,4.4,-3.1,-11,x,-4,-13
C=CCn1c(=O)c2c(nc(-c3ccc(S(=O)(=O)O)cc3)n2C)n(C)c1=O,x,-1.2,6.9,-0.7,-3,-54,-4,-7
O=C(Cn1cnc2ccccc2c1=O)NC1CCS(=O)(=O)C1 (stereo unspecified),x,-0.1,-2.1,-2.1,1,3.0,-3,-2
COCc1cc(CN2CCCC(C(=O)Nc3cccc(-n4cnnn4)c3)C2)ccc1OC (stereo unspecified),0,0.6,-6.1,1.6,-5,x,-5,70*
CC1(C)CC(=O)C(N=Nc2ccc(OC(F)F)cc2)=C(O)C1,8,0.6,-1.8,1.5,-10,10,-3,-11
Cc1ccc(NS(=O)(=O)c2ccc(C)c(C(=O)NCC(c3ccccc3)N(C)C)c2)cc1 (stereo unspecified),x,-0.6,x,3.2,1,1.4,0,x
CCOC(=O)Cc1csc(NC(=O)CSc2nnc(Cc3csc(N)n3)n2C)n1,-12,-0.4,-2.3,3.7,4,2.2,-3,-5
CC(C)CN=Cc1c(O)c([N+](=O)[O-])cc2oc3c(c12)CCCC3,-5,0.2,-8.0,2.9,-58,9.8,x,-8
O=C(CCn1[nH]c(=O)c2ccccc2c1=O)NCCO,-20,1.1,4.1,12,7,-0.8,-3,-17
CC1=C(C(=O)OCC(C)C)C(c2ccc(Br)s2)NC(=O)N1 (stereo unspecified),u,0.6,0.5,-0.8,0,0.2,0,7
CCOc1ccc(C2NC(=O)c3ccccc3O2)cc1OCC (stereo unspecified),4,1.0,0.1,3.1,6,1.4,-1,0
COc1ccccc1C1CC(=O)NC(C)=C1C(=O)OCC(C)C (stereo unspecified),-2,-0.3,1.0,0.8,1,4.7,-5,1
COc1ccc(-c2ccc(N(C)C)cc2)cc1[C@H]1[C@H]2C=CC[C@@H](C)[C@@H]2C(=O)N1Cc1ccccc1,-5,-0.3,3.4,-1.5,5,-2.7,2,38
Cc1c(CN(C)C)c2c(n1C)C(=O)c1ccc(Br)cc1-2,-3,0.2,0.4,1.7,0,4.7,3,1
Cc1ccc(S(=O)(=O)N2CCCCC2)cc1C(=O)OCC(=O)N1c2ccccc2NC(=O)C1(C)C,x,-1.0,x,0.6,-6,4.5,-5,x
O=C(NCCC1CCCCN1S(=O)(=O)c1ccccc1)C(=O)NCC1CCCO1 (stereo unspecified),-4,-0.2,1.2,0.1,-5,-1.1,x,-5
Cc1ccc(C2NC(=O)CCC2[N+](=O)[O-])cc1 (stereo unspecified),-7,1.2,1.5,-3.6,1,3.5,x,-19
Cc1cccc(N2CCN(C(=O)CNC(=O)Cc3ccccc3)CC2)c1C,x,0.8,x,2.5,9,2.4,0,x
CCOc1ccc(NC(=S)N2CCC(N(C)CCN3CCOCC3)CC2)cc1,-1,-0.6,-1.1,-2.4,-3,-1.3,7,25
CCc1c(C)c2nncn2[nH]c1=O,-9,1.7,-3.8,2.7,6,2.3,-11,-4
O=C(CSc1nc(=O)[nH]c2c1CCCC2)Nc1ccc(F)cc1F,-6,-1.3,u,-0.1,-2,1.4,-7,-9
Cc1cc(C)nc(SCC(=O)c2ccc([N+](=O)[O-])cc2)n1,1,0.1,3.6,3.1,1,1.6,0,8
O=C(c1cccc(S(=O)(=O)N2CCOCC2)c1)N1CCN(c2ccccc2)CC1,x,-0.7,x,-0.8,-8,1.7,-1,x
COc1ccc(-c2cn[nH]c2-c2ccc(OCc3ccc([N+](=O)[O-])cc3)cc2O)cc1OC,-10,0.1,3.2,3.1,15,4.5,17,52
CCC(NC(=O)CCc1c(C)c2cc3c(C)c(C)oc3cc2oc1=O)C(=O)N[C@@H](Cc1ccccc1)C(=O)O (stereo partly specified),-2,0.0,5.2,-3.1,-2,-52,2,3
Cn1c(N)c(C(=O)COC(=O)CNS(=O)(=O)c2ccc(Cl)c(Cl)c2)c(=O)n(C)c1=O,4,0.9,-3.0,-1.0,7,6.8,x,-10
N=C1CCCN1c1ccccc1O,-3,0.2,-0.3,3.4,-1,0.1,-9,-5
O=C(NCCOc1nc(N2CCOCC2)nc(N2CCOCC2)n1)Nc1ccc(Cl)cc1,17,0.3,-2.6,-1.9,26,2.8,-2,17
COc1ccc(C(=O)Nc2ccc3c(c2)OCCO3)cc1,x,1.5,x,-6.2,-12,1.5,3,x
Cc1c(C(=O)C(=O)N2CCN(Cc3ccc4c(c3)OCO4)CC2)c2ccccc2n1C,-16,-0.2,2.1,0.5,1,8.7,-9,5
COc1ccc(OCC(=O)Nc2cc(NC(=O)c3ccco3)ccc2OC)cc1,2,0.7,5.1,3.5,12,1.7,3,13
CCS(=O)(=O)n1nc(NCc2cccc(OC)c2)nc1NCc1cccc(OC)c1,2,-0.9,2.0,0.1,7,0.0,2,5
O=C(CC(Nc1ccc(F)cc1)C(=O)O)c1ccccc1 (stereo unspecified),4,-7.8,5.3,2.4,0,0.1,-2,-16
O=C1C2C(c3ccccc3)CC=CC2[C@H](c2ccc3ccccc3c2)N1Cc1ccccc1 (stereo partly specified),0,0.0,0.0,4.2,24,x,10,16
O=C(CSc1nc2ccccc2o1)N/N=C/c1ccccc1,-20,0.3,-1.7,1.4,-14,x,-9,-7
Cc1nnc(SCC(=O)NCc2ccccc2)s1,-3,-0.1,2.6,4.5,8,-1.9,-3,-6
CCOC(=O)c1cnc2c(c(C)nn2C)c1Oc1ccc(OC)cc1,1,-1.0,2.5,-3.6,11,1.8,3,-10
COc1ccc(CNS(=O)(=O)c2cc3c4c(c2)C(C)C(=O)N4CCC3)cc1 (stereo unspecified),6,-1.1,-0.8,3.3,4,4.7,-2,-2
NC(=O)c1ccc(Nc2nnc(-c3ccc(O)cc3)c3ccccc23)cc1,85*,0.0,2.6,x,6,-2.6,-3,-17
CN(C)S(=O)(=O)c1ccc(NCC2COc3ccccc3O2)c([N+](=O)[O-])c1 (stereo unspecified),-10,-0.7,-5.3,-2.9,13,1.7,8,13
COc1ccc(N2C(=O)CC(N3CCN(c4nc5ccccc5s4)CC3)C2=O)cc1 (stereo unspecified),-5,-0.1,4.9,-2.0,6,2.6,-15,-12
CCCc1nnc(NC(=O)CN2C(=O)c3ccccc3S2(=O)=O)s1,1,0.7,2.7,-2.1,7,-0.4,-2,0
CC1CCN(Cc2c(C(=O)N/N=C/c3ccc(C(C)C)cc3)nnn2-c2nonc2N)CC1,13,0.4,1.9,2.7,5,x,9,5
COC(=O)c1ccccc1C(=O)N1CCCC(CNC(=O)c2ccc(F)cc2)C1 (stereo unspecified),-2,-1.4,1.9,0.8,5,4.8,-4,-26

Bioassay records from PubChem.
